Calb FLC – affects C. albicans growth with fluconazole; actives 0.57% (n = 300,000); growth inhibition, % (no concentration beside the values); C. albicans CaCi-2 (fluconazole-resistant clinical isolate) + fluconazole, Alamar Blue growth, 48 h;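 active = most replicates above 75%; inconclusive = exactly half above 75%; inactive = most below 75%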;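 also: all wells also contain fluconazole at 8 µg/ml as a sub-toxic cotreatment; 0% = median of DMSO wells and 100% = median of geldanamycin control wells; wells of about 8 µL received 7.5 nL stock; the first replicate is given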
RanGTP-Imp inh – inhibitors of RanGTP-importin-beta interaction, primary screen, biochemical, FRET, CFP-Ran, YFP-importin-beta, homogeneous. AID 2216. actives 1.1% (n = 300,000). cell-free CFP-Ran/YFP-importin-beta FRET ratio. inhibition, % (concentration not given with the values);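 active = most replicates above 15%; inconclusive = exactly half above 15%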;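 also: 0% = DMSO wells and 100% = Ran loaded with GDP instead of GTP; wells of about 40 µL received 100 nL stock; the first replicate is given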
Ecoli rRNA inh – selective bacterial rRNA inhibition in E. coli | E. coli WT GFP vs humanized-ribosome RFP mutants, fluorescence, 24 h; stronger effect = lower value; DMSO median 0, no signal -100 | GFP signal change (wild-type ribosome), % (concentration not given with the values) | AID 720706 | actives 1.6% (n = 350,000);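 active = significant combined selectivity score with lowered wild-type GFP, culture density cut under 30%, mutant RFP and density less affected; inactive = any of these conditions unmet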; also: one replicate is shown; some compounds called inactive have numbers as strong as hits
A1 inh – inhibitors of the anti-apoptotic protein A1, read as caspase activation; actives 0.066% (n = 330,000); AID 2462; caspase activation, % (no concentration beside the values); MEF A1-2A-BIM cells, Caspase-Glo 3/7 luminescence, 3 h; percent of clofoctol response, vehicle zero;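 active = over half of replicate activation scores above 10%, or exactly half above 10 with the replicate mean above 10; inconclusive = replicate mean below 10 yet half the replicates above 10; inactive = over half of replicates below 10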;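 also: wells of about 30 µL received 50 nL stock; many hits fall short of the cut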
AF4-AF9 inh – blocks AF4 peptide binding to human AF9; AlphaScreen, biotin-AF4 peptide binding to FLAG-AF9; inhibition, % at 10 µM; actives 0.47% (n = 350,000); AID 651704;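 active = every replicate reaching a set inhibition limit, whatever the replicate mean, cut at about 25% in these data; inconclusive = mean inhibition reaches that limit but some replicates miss it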;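 also: 0% = plate neutral control median and 100% = total signal loss; the record names both 10 and 1 µM as test concentration; the first replicate is given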
Target sequence (P42568 whole entry, looked up): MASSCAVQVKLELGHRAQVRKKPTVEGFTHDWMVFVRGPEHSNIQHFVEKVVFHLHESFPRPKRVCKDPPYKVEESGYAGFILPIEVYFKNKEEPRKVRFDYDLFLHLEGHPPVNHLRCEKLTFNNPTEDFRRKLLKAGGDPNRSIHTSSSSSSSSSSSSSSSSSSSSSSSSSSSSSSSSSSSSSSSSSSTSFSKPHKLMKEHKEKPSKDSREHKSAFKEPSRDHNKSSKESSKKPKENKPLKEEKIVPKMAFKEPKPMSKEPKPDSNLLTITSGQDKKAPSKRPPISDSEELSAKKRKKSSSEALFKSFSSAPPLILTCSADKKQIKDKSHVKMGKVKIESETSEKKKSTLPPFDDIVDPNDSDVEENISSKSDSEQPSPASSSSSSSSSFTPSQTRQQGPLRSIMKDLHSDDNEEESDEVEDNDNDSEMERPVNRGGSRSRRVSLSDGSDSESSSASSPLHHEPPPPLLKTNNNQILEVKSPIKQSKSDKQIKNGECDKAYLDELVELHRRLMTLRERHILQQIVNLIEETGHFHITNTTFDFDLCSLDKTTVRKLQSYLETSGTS
Vif A3G – inhibitors of Vif binding to APOBEC3G peptide, primary screen, biochemical, TR-FRET, GST-Vif 1-94, biotin-A3G peptide, dose response retest (AID 1117319). TR-FRET GST-Vif / biotin-A3G peptide binding; higher % means a stronger effect; test concentration not given here; strong numbers were not always called active. inhibition, %, or IC50 in µM where a hit was titrated. actives 0.57% (n = 260,000);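 active = above the screen mean plus three standard deviations and confirmed in dose response; inconclusive = results disagree or hit not tested in dose response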;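 also: Vif residues 1-94 fused to GST binding biotinylated APOBEC3G peptide 110-148; 0% = full assay without inhibitor and 100% = GST in place of GST-Vif; retest series ran down from 100 µM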
T cruzi inh – blocks replication of Trypanosoma cruzi | actives 1.4% (n = 300,000) | AID 1885 | T. cruzi beta-gal in NIH3T3, luminescence, 90 h | inhibition, % (no concentration beside the values);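 active = mean inhibition across valid replicates above about 55%, limit read from the data; inconclusive = mean below that limit but half or more replicates reach it; inactive = mean below it, under half of replicates reach it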;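 also: signal also drops with host cell toxicity which is not excluded here; 0% = plate median of DMSO wells and 100% = zero luminescence signal; higher percent means less beta-gal luminescence so fewer parasites; stock transfer was 50 nL into about 50 µL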
Beta apoptosis – blocks beta cell apoptosis; actives 0.8% (n = 300,000); AID 435005; protection from apoptosis, % (no concentration beside the values); INS-1E cytokine-induced death, ATP luminescence, 48 h; percent of positive-control rescue, neutral wells zero;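 active = all replicates at 75% or more, or half of them and the mean; inconclusive = half reach 75% but not the mean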;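 also: 0% = cytokine-treated negative control wells and 100% = positive control rescue; higher means more ATP so stronger rescue from cytokine killing; wells of about 40 µL received 100 nL stock; the first replicate is given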
Ecoli rRNA inh OD600 – further read-out of Ecoli rRNA inh, marked with its call; OD600 change, %; measured here: OD600 growth;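 optical density of the mix in the first replicate; 0 = DMSO median and -100 = no signal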
Ecoli rRNA inh RFP – second read-out of Ecoli rRNA inh, no call of its own (marks repeat the call); RFP signal change, %; measured here: RFP humanized mutant strains;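 first replicate; 0 = DMSO median and -100 = no signal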
* hit, by the source's call. An excerpt (hit frequency here may not be typical).

Start of the data: the first 2 compounds, ahead of the listing:
For Cn1nc(-c2ccccc2)c2ncc(C(F)(F)F)cc21 the results were Calb FLC 35, RanGTP-Imp inh -0.3, A1 inh 0.1, T cruzi inh -14 and Beta apoptosis -7.
Screening COc1nc(NC23CC4CC(CC(C4)C2)C3)nc(OC)n1 returned Calb FLC 7, RanGTP-Imp inh 0.5, A1 inh 0.4, Vif A3G -4%, T cruzi inh 19 and Beta apoptosis 5.

The whole of this part, previewed entries included:
For Cn1nc(-c2ccccc2)c2ncc(C(F)(F)F)cc21 the results were Calb FLC 35, RanGTP-Imp inh -0.3, A1 inh 0.1, T cruzi inh -14 and Beta apoptosis -7.
Screening COc1nc(NC23CC4CC(CC(C4)C2)C3)nc(OC)n1 returned Calb FLC 7, RanGTP-Imp inh 0.5, A1 inh 0.4, Vif A3G -4%, T cruzi inh 19 and Beta apoptosis 5.
CC(C)(c1ccc(O)cc1)c1ccc(O)cc1 was read as Calb FLC 12, RanGTP-Imp inh 5.2, Ecoli rRNA inh -5, A1 inh -0.6, AF4-AF9 inh 2.7, Vif A3G 1%, T cruzi inh -3, Beta apoptosis -5, Ecoli rRNA inh OD600 -3 and Ecoli rRNA inh RFP -2.8.
For Cc1oc(-c2ccccc2F)nc1CS(=O)(=O)CC(=O)NCc1ccccc1Cl the results were Calb FLC 8, RanGTP-Imp inh 3.6, Ecoli rRNA inh 3, A1 inh 0.1, AF4-AF9 inh -8.9, T cruzi inh -3, Beta apoptosis 0, Ecoli rRNA inh OD600 -3 and Ecoli rRNA inh RFP -1.1.
`CCOC(=O)N1CCN(C(=O)CSc2nc3c([nH]c4ccccc43)c(=O)n2CCOC)CC1` gave Calb FLC -11, RanGTP-Imp inh -2.8, Ecoli rRNA inh 2, A1 inh 0.2, AF4-AF9 inh -1.0, Vif A3G 5%, T cruzi inh 2, Beta apoptosis 8, Ecoli rRNA inh OD600 3 and Ecoli rRNA inh RFP -2.5.
`O=c1[nH]c(-c2ccccc2)c(-c2ccccc2)nc1[N+](=O)[O-]` gave Calb FLC 7, RanGTP-Imp inh 6.0, Ecoli rRNA inh 11, A1 inh -0.6, AF4-AF9 inh 2.1, T cruzi inh -5, Beta apoptosis -1, Ecoli rRNA inh OD600 4 and Ecoli rRNA inh RFP -2.6.
Screening CCOC(=O)CSc1snnc1-c1ccccc1 returned Calb FLC 3, RanGTP-Imp inh 2.8, A1 inh 0.1, Vif A3G 5%, T cruzi inh -12 and Beta apoptosis 0.
`O=C(CCNS(=O)(=O)c1ccccc1C(F)(F)F)N1CCCCCCC1` gave Ecoli rRNA inh -7, A1 inh -0.8, AF4-AF9 inh -5.7, Vif A3G -3%, Beta apoptosis -5, Ecoli rRNA inh OD600 -10 and Ecoli rRNA inh RFP 1.5.
COC(=O)c1ccc(Cn2nnc3c(=O)[nH]c(C4CCN(S(=O)(=O)c5cc(C)ccc5C)CC4)nc32)cc1 was read as Calb FLC 19, RanGTP-Imp inh inconclusive, Ecoli rRNA inh 0, AF4-AF9 inh -0.3, Vif A3G 1%, T cruzi inh 7, Ecoli rRNA inh OD600 -3 and Ecoli rRNA inh RFP -0.2.
`CCc1cccc(NC(=O)CCc2nc3sc4c(c3c(=O)[nH]2)CCCC4)c1` gave Calb FLC 2, RanGTP-Imp inh -1.0, Ecoli rRNA inh -1, A1 inh 1.1, AF4-AF9 inh -13, Vif A3G 9%, T cruzi inh 13, Beta apoptosis 4, Ecoli rRNA inh OD600 7 and Ecoli rRNA inh RFP 1.1.
`CCOc1ccc(CSC(=N)N)cc1[N+](=O)[O-]` gave Calb FLC -1, RanGTP-Imp inh -6.4, A1 inh 1.2, Vif A3G 4%, T cruzi inh -11 and Beta apoptosis -15.
Screening Cc1ccc(S(=O)(=O)NCC(=O)OCC(=O)N2N=C(c3ccc(Cl)cc3)CC2c2ccco2)cc1C (stereo not given) returned Calb FLC -13, RanGTP-Imp inh 1.7, A1 inh 0.2, Vif A3G 2%, T cruzi inh -10 and Beta apoptosis 7.
CCN(CC)C(=O)CN(C#N)c1nc(NC(C)C)nc(NC(C)C)n1 was read as Calb FLC 28, RanGTP-Imp inh 2.5, A1 inh -0.2, Vif A3G -2%, T cruzi inh -1 and Beta apoptosis 3.
`CCOc1ccc2nc(N3CCCC(C(=O)NCCCN4CCOCC4)C3)sc2c1` (stereo not given) gave Calb FLC 4, RanGTP-Imp inh inconclusive, Ecoli rRNA inh 1, A1 inh -0.2, AF4-AF9 inh -1.5, Vif A3G 63%, T cruzi inh -5, Beta apoptosis 2, Ecoli rRNA inh OD600 0 and Ecoli rRNA inh RFP 0.2.
For Cc1cc(NC(=O)C2Oc3ccccc3OC2C)no1 (stereo not given) the results were Calb FLC 1, RanGTP-Imp inh -5.2, Ecoli rRNA inh 8, A1 inh 0.4, AF4-AF9 inh 0.7, Vif A3G inconclusive, T cruzi inh -4, Beta apoptosis -4, Ecoli rRNA inh OD600 7 and Ecoli rRNA inh RFP 5.3.
For CC(Cc1cccs1)NC(=O)Nc1cccc(Cl)c1 (stereo not given) the results were Calb FLC -59, RanGTP-Imp inh 1.0, A1 inh 0.7, Vif A3G 3%, T cruzi inh -3 and Beta apoptosis 2.
For COc1ccc(/C=N/N2CCN(C3c4ccccc4-c4ccccc43)CC2)cc1OC the results were Calb FLC -12, RanGTP-Imp inh -2.4, A1 inh 0.0, T cruzi inh -8 and Beta apoptosis -3.
`COc1cc(C)c(CNc2cc(C)cc(C)c2)cc1C` gave Calb FLC 14, RanGTP-Imp inh -2.7, A1 inh 0.5, Vif A3G 31%, T cruzi inh 6 and Beta apoptosis -5.
For CC(C)CN(C(=O)CN(C)C(=O)Cc1ccc(Cl)cc1)c1c(N)n(CC(C)C)c(=O)[nH]c1=O the results were Calb FLC -1, RanGTP-Imp inh 2.8, Ecoli rRNA inh 0, A1 inh -0.3, AF4-AF9 inh -3.6, Vif A3G 26%, T cruzi inh -8, Beta apoptosis 0, Ecoli rRNA inh OD600 7 and Ecoli rRNA inh RFP -1.8.
Screening CC(SCC(=O)Nc1ccc(S(=O)(=O)N2CCCCC2)cc1)C(=O)O (stereo not given) returned Calb FLC -6, RanGTP-Imp inh 1.6, A1 inh -0.3, Vif A3G -3%, T cruzi inh -3 and Beta apoptosis -3.
For Cc1ccc(Nc2nc(-c3ccc(S(=O)(=O)N4CCOCC4)cc3)cs2)cc1Cl the results were Calb FLC -9, RanGTP-Imp inh 1.7, A1 inh 0.9, Vif A3G 21%, T cruzi inh 50 and Beta apoptosis 15.
`OC(CSc1ccccc1Cl)CN1CCN(c2ccccc2F)CC1` (stereo not given) gave Calb FLC 1, RanGTP-Imp inh 4.5, A1 inh -0.1, Vif A3G 30%, T cruzi inh 0 and Beta apoptosis 0.
`NNC(=O)c1c[nH]c2ccc(OCc3ccccc3)cc12` gave Calb FLC -2, RanGTP-Imp inh 2.6, Ecoli rRNA inh -27*, A1 inh 0.1, AF4-AF9 inh -0.6, T cruzi inh -34, Beta apoptosis -3, Ecoli rRNA inh OD600 -22* and Ecoli rRNA inh RFP 1.0*.
`CCOC(=O)CCCN1CC(O)=C(c2nc(-c3ccc(Cl)cc3)cs2)C1=N` gave Calb FLC -3, Ecoli rRNA inh 42, A1 inh 0.0, AF4-AF9 inh -0.4, Vif A3G -2%, Beta apoptosis -22, Ecoli rRNA inh OD600 14 and Ecoli rRNA inh RFP 5.5.
For Cc1sc(NC(=O)CCl)c(C(=O)c2ccccc2)c1C the results were Calb FLC -18, RanGTP-Imp inh 1.2, A1 inh 0.4, Vif A3G 6%, T cruzi inh 24 and Beta apoptosis 8.
Screening Cc1ccc2c(c1)C(=O)C(=O)N2c1ccc(C(F)(F)F)cc1 returned Ecoli rRNA inh 0, A1 inh 0.3, AF4-AF9 inh -10, Beta apoptosis -4, Ecoli rRNA inh OD600 -2 and Ecoli rRNA inh RFP -2.2.
For CCN(c1cccc(C)c1)S(=O)(=O)c1ccc2c(c1)NC(=O)CS2 the results were Calb FLC 16, RanGTP-Imp inh -2.1, Ecoli rRNA inh -28, A1 inh -1.4, AF4-AF9 inh 5.5, Vif A3G 5%, T cruzi inh 4, Beta apoptosis -1, Ecoli rRNA inh OD600 -44 and Ecoli rRNA inh RFP -8.9.
`COc1ccc(NC(=O)c2cc(=O)[nH]c3ccccc23)cc1` gave Calb FLC 1, RanGTP-Imp inh 0.8, Ecoli rRNA inh 4, A1 inh 0.5, AF4-AF9 inh -0.1, T cruzi inh -16, Beta apoptosis 6, Ecoli rRNA inh OD600 -3 and Ecoli rRNA inh RFP -0.5.
For CC(C)N1CCc2c(sc(NC(=O)c3cc(-c4cccs4)nc4ccccc34)c2C(N)=O)C1 the results were Calb FLC -9, RanGTP-Imp inh 12, A1 inh 1.6, Vif A3G -3%, T cruzi inh 38 and Beta apoptosis 25.
`CC(=O)c1cccc(NC(=O)CCCOc2ccc(C)cc2)c1` gave Calb FLC 4, RanGTP-Imp inh -2.6, Ecoli rRNA inh -11, A1 inh 0.0, AF4-AF9 inh -12, Vif A3G -7%, T cruzi inh 11, Beta apoptosis -3, Ecoli rRNA inh OD600 -9 and Ecoli rRNA inh RFP -3.0.
Screening Cc1cc(O)c(C(=O)/C=C/c2ccc(Cl)cc2)c(=O)o1 returned Calb FLC -3, RanGTP-Imp inh 1.0, Ecoli rRNA inh 10, A1 inh -1.2, AF4-AF9 inh 9.0, Vif A3G 6%, T cruzi inh -3, Beta apoptosis -1, Ecoli rRNA inh OD600 12 and Ecoli rRNA inh RFP 0.5.
`N#CCCn1cc(C(CC(=O)c2ccc(Br)cc2)C(=O)O)c2ccccc21` (stereo not given) gave Calb FLC 0, RanGTP-Imp inh 13, A1 inh -0.5, Vif A3G 30%, T cruzi inh -8 and Beta apoptosis 5.
`CC(C)c1csc(CN2CCCC(CCC(=O)NCc3ccccc3F)C2)n1` (stereo not given) gave Calb FLC 7, RanGTP-Imp inh -3.6, Ecoli rRNA inh -2, A1 inh 0.7, AF4-AF9 inh -0.8, T cruzi inh 51, Beta apoptosis 1, Ecoli rRNA inh OD600 -9 and Ecoli rRNA inh RFP 4.5.
O=C(COC(=O)c1cc(-c2cccnc2)nc2ccccc12)Nc1ccc(F)cc1F was read as Calb FLC -18, RanGTP-Imp inh -3.1, Ecoli rRNA inh -3, A1 inh 2.1, AF4-AF9 inh 2.1, Vif A3G -4%, T cruzi inh -4, Beta apoptosis -7, Ecoli rRNA inh OD600 4 and Ecoli rRNA inh RFP 6.1.
O=c1c(-c2ccco2)[n+]([O-])c2ccccc2n1OCc1ccccc1 was read as Calb FLC 7, RanGTP-Imp inh 0.2, A1 inh -0.5, Vif A3G 22%, T cruzi inh 9 and Beta apoptosis 3.
Screening Cc1cccc(Oc2c(C=O)c3ccccc3n2C)c1 returned Calb FLC 6, RanGTP-Imp inh inconclusive, A1 inh 0.3, Vif A3G -8%, T cruzi inh 14 and Beta apoptosis -4.

Screening data deposited in PubChem by several laboratories.
